T cruzi inh: T. cruzi replication inhibition; T. cruzi beta-gal in NIH3T3, luminescence, 90 h; inhibition, % (concentration not given with the values); 300,000 tested, 1.4% active;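 active = mean inhibition across valid replicates above about 55%, limit read from the data; inconclusive = mean below that limit but half or more replicates reach it; inactive = mean below it, under half of replicates reach it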;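 note: signal also drops with host cell toxicity which is not excluded here; 0% = plate median of DMSO wells and 100% = zero luminescence signal; higher percent means less beta-gal luminescence so fewer parasites; stock transfer was 50 nL into about 50 µL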
ALR H2O2 inh: human ALR oxidase inhibition via reduced H2O2; P55789; 290,000 tested, 3.8% active; purified ALR, DTT oxidation, H2O2 HRP-luminol luminescence; AID 485317; inhibition, % (no concentration beside the values);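 active = mean and each replicate at 75% or more; inconclusive = only one of the two met; inactive = neither met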;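 note: stock transfer was 7.5 nL into about 7.5 µL; 0% = neutral wells and 100% = wells with inactivated enzyme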
Target sequence (P55789 whole entry, looked up): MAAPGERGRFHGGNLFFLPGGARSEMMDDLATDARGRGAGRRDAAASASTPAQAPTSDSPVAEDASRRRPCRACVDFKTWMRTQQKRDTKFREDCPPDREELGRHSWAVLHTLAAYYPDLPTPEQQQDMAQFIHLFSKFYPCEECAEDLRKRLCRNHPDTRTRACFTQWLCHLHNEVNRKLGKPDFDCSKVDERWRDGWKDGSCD
Beta cell apopt: beta cell apoptosis inhibition. INS-1E cytokine-induced death, ATP luminescence, 48 h; percent of positive-control rescue, neutral wells zero. protection from apoptosis, % (test concentration not listed). 300,000 tested, 0.8% active. AID 435005;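 active = all replicates at 75% or more, or half of them and the mean; inconclusive = half reach 75% but not the mean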;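 note: 0% = cytokine-treated negative control wells and 100% = positive control rescue; higher means more ATP so stronger rescue from cytokine killing; wells of about 40 µL received 100 nL stock; the first replicate is given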
Calb FLC: affects C. albicans growth with fluconazole; C. albicans CaCi-2 (fluconazole-resistant clinical isolate) + fluconazole, Alamar Blue growth, 48 h; 300,000 tested, 0.57% active; growth inhibition, % (concentration not given with the values); AID 1979;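 active = most replicates above 75%; inconclusive = exactly half above 75%; inactive = most below 75%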;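 note: all wells also contain fluconazole at 8 µg/ml as a sub-toxic cotreatment; 0% = median of DMSO wells and 100% = median of geldanamycin control wells; wells of about 8 µL received 7.5 nL stock; the first replicate is given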
Bfl-1 A1 inh: inhibitors of the anti-apoptotic protein A1, read as caspase activation; MEF A1-2A-BIM cells, Caspase-Glo 3/7 luminescence, 3 h; percent of clofoctol response, vehicle zero; caspase activation, % (test concentration not listed); 330,000 tested, 0.066% active;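 active = over half of replicate activation scores above 10%, or exactly half above 10 with the replicate mean above 10; inconclusive = replicate mean below 10 yet half the replicates above 10; inactive = over half of replicates below 10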;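 note: wells of about 30 µL received 50 nL stock; many hits fall short of the cut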
Ecoli rRNA inh: selective bacterial rRNA inhibition in E. coli; 350,000 tested, 1.6% active; E. coli WT GFP vs humanized-ribosome RFP mutants, fluorescence, 24 h; active compounds read low; DMSO median 0, no signal -100; GFP signal change (wild-type ribosome), % (no concentration beside the values);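 active = significant combined selectivity score with lowered wild-type GFP, culture density cut under 30%, mutant RFP and density less affected; inactive = any of these conditions unmet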; note: one replicate is shown; some compounds called inactive have numbers as strong as hits
Beta2AR agonist: agonists of human beta-2 adrenergic receptor inducing internalization; response, % (test concentration not listed); Am2.2-beta2AR cells, FAP receptor internalization, flow cytometry; reference of the scale not given here; 340,000 tested, 0.43% active; P07550;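 active = response above a set limit, near 3 SD of response in nonfluorescent compounds, cut at about 42% in these data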;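 note: stock transfer was 100 nL into about 11 µL; a reference agonist was the positive control; negative values mostly stem from fluorescent compounds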
Target sequence (P07550 whole entry, looked up): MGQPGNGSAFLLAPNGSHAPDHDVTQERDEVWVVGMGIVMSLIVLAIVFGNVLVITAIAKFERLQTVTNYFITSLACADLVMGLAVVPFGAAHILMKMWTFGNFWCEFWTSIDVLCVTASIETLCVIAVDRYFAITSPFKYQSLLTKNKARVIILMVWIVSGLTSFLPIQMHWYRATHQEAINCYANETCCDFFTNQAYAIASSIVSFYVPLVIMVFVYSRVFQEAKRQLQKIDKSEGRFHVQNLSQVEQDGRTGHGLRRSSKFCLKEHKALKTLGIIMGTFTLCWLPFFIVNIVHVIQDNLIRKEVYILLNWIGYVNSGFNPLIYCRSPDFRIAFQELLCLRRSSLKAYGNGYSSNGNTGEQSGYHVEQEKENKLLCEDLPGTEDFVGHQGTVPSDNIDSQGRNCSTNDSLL
LANA-H2A inh: blocks KSHV LANA binding to histone H2A/H2B; cell-free LANA-H2A/H2B peptide, fluorescence polarization; inhibition, % (test concentration not listed); 320,000 tested, 0.6% active; in the data active = inhibition mostly above about 10%, no sharp cut-off; inactive = mostly below about 6.7%;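 note: stock transfer was 7.5 nL into about 10 µL; 0% = median of vehicle wells and 100% = median of positive control wells; one replicate is shown; the record names a cut of 25% in any replicate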
Ecoli rRNA inh OD600: also measured in Ecoli rRNA inh; calls as there; OD600 change, %; measured here: OD600 growth;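 optical density of the mix in the first replicate; 0 = DMSO median and -100 = no signal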
Ecoli rRNA inh RFP: recorded beside Ecoli rRNA inh, whose call it bears; RFP signal change, %; measured here: RFP humanized mutant strains;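 first replicate; 0 = DMSO median and -100 = no signal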
Numbers without * were called inactive; i = inactive; ? = inconclusive; · = no result given. Some of the compounds tested (hit frequency here may not be typical).

mol	T cruzi inh	ALR H2O2 inh	Beta cell apopt	Calb FLC	Bfl-1 A1 inh	Ecoli rRNA inh	Ecoli rRNA inh OD600	Ecoli rRNA inh RFP	Beta2AR agonist	LANA-H2A inh
CCC(=O)NC(c1ccco1)c1cc(Cl)c2cccnc2c1O (centres undefined)	63*	18	24	90*	-0.2	-34	-63	-2.9	3	-1.6
C=CCn1c(SCC(=O)c2ccc(O)c(O)c2)nnc1-c1cccc(Cl)c1	·	98*	-4	·	0.0	-18	-24	-28	0	-0.6
CCCN1CN(Cc2ccccc2)CNC1=S	-11	-10	-2	-8	-0.7	·	·	·	4	2.4
O=C(CCN1CCCO1)NC1CCCc2c1cnn2-c1ccccc1F (centres undefined)	9	-2	-5	-5	0.7	2	5	-0.8	-7	0.4
O=C(CCC(=O)c1ccc(F)cc1)OC1CCOC1=O (centres undefined)	-10	-2	-7	-2	0.8	·	·	·	-2	-5.5
Cc1cccc(NC(=O)NCCc2ccc(Cl)cc2)c1	18	-6	-11	-6	0.1	9	3	0.4	-5	2.2
COc1cccc(N/C(SCc2cccc([N+](=O)[O-])c2)=C(/C#N)C(=O)NCc2cccs2)c1	25	-4	5	-4	-0.4	6	7	-6.4	-3	i
O=[N+]([O-])c1cccc(/C=N/Nc2nccnc2Cl)c1	-10	19	5	35	-8.3	·	·	·	-14	54*
Cc1cc(C)n(C(=O)c2ccc(NC(=O)C3COc4ccccc4O3)cc2)n1 (centres undefined)	-25	·	1	-16	-0.4	·	·	·	·	·
COC(=O)C1CCN(C(=O)Cc2ccc(Br)cc2)CC1	5	2	-6	1	-0.3	·	·	·	5	-0.9
COC(=O)C1=CN(Cc2ccc(OC)c(OC)c2)C=C(C(=O)OC)C1c1cccc(OC)c1OC	61*	·	-8	-11	-0.8	-10	-17	0.5	-2	-1.2
CCn1c(CSc2ncccn2)nnc1SCC(=O)N1c2ccccc2CC1C (centres undefined)	14	-5	1	-14	0.2	-12	-9	0.1	-8	0.4
COCCCN1C(=O)C(=O)/C(=C(/O)c2ccc(C)cc2)C1c1ccccc1 (centres undefined)	-2	-14	-5	5	-0.3	·	·	·	0	-3.8
COc1ccc(-c2cc(C(=O)Nc3c(Cl)cc(Cl)cc3Cl)c3ccccc3n2)cc1OC	2	-12	1	20	0.0	3	8	-0.1	16	1.3
CCNC(=S)N/N=C(\C)c1cccc(OC)c1	-9	11	-10	46	0.4	-1	5	-3.0	2	-1.3
COc1ccc(NC(=O)Nc2cccc3ccccc23)cc1S(N)(=O)=O	-7	-9	-5	-1	0.2	1	1	-0.4	40	-0.7
COc1ccc(NC(=O)CN2C(=O)C(C)Oc3ccccc32)c(OC)c1 (centres undefined)	5	-15	-1	4	-1.3	·	·	·	4	-2.7
CCOC(=O)N1CCN(CCC(=O)Nc2ccc(C)c(Br)c2)CC1	-2	·	-5	-3	0.0	·	·	·	1	3.3
CC(C)C(=O)NC(Nc1ccccc1F)C(Cl)(Cl)Cl (centres undefined)	5	-2	3	-26	0.6	·	·	·	0	-1.2
O=C(Nc1ccc(Cl)cc1)C1CCCN(S(=O)(=O)c2cnc[nH]2)C1 (centres undefined)	-7	96*	-1	-3	-0.4	0	3	-4.8	-5	0.5
O=C(NCc1ccccn1)c1ccc2c(=O)n3nc(Nc4ccccc4)sc3nc2c1	-3	0	7	11	0.2	13	23	4.1	-13	-0.3
O=C(Oc1ccccc1)c1cc2ccccc2o1	0	-5	-7	0	0.8	·	·	·	3	-4.3
O=C(NC1CC(=O)N(c2ccccc2)C1)N1CCN(C(=O)c2ccco2)CC1 (centres undefined)	0	0	-5	4	-0.5	17	13	-0.1	1	11
Cc1cc(C(C)(C)C)cc(C)c1C[n+]1ccc2ccccc2c1	44	-13	111*	5	-0.8	-52	-75	-5.7	6	1.5
S=C(Nc1ccccc1)N1CCOCCOCCN(C(=S)Nc2ccccc2)CCOCCOCC1	-13	-4	0	-2	-0.2	-1	-8	-1.5	3	-6.0
CCc1ccccc1NC(=O)Nc1c(C)n(C)n(-c2ccccc2)c1=O	-7	-1	-5	-3	-0.1	3	4	-0.8	2	1.2
COc1ccc(CCn2c(NCc3ccco3)nc3c2c(=O)[nH]c(=O)n3C)cc1	5	4	-1	-2	-0.7	·	·	·	2	4.1
CCN(CC(=O)NC1CCS(=O)(=O)C1)S(=O)(=O)c1ccccc1Cl (centres undefined)	-1	0	-10	5	0.2	23	18	-1.9	3	-2.9
CCCn1c(SCC(=O)Nc2ccc3c(c2)OCO3)n[nH]c1=O	·	-6	4	·	-0.5	-1	4	-2.2	-7	4.6
O=C(O)CCC(=O)N1N=C(c2ccc(Br)cc2)CC1c1cccs1 (centres undefined)	-8	1	-3	28	0.5	-19	-23	-6.5	-2	0.6
CC(C)C[C@@H](CO)N1CCN(CC(C)C)CCC1=O	-13	1	-7	4	0.2	·	·	·	-14	3.2
CCCCN1C(=O)C(=O)NC[C@@H]1CCCCN	0	1	-1	-14	-0.3	12	9	1.5	-4	-4.0
CCSc1nc(O)cc(=O)n1-c1ccc(OC)cc1	-14	-1	1	2	-0.1	·	·	·	-1	-1.2
CC(=O)c1ccc(NC(=O)c2cc(=O)[nH]c3ccccc23)cc1	-5	-6	-7	1	-0.5	13	11	-0.3	13	5.9
CCC(Sc1nc2c(c(=O)[nH]1)CCC2)C(=O)Nc1cccc(OC)c1 (centres undefined)	-10	-5	1	-2	-0.8	·	·	·	1	-3.0
COc1ccc(CCNC(=O)[C@@H](NC(=O)N2CCn3c2nc2ccccc23)C(C)C)cc1OC	-2	-6	5	7	0.5	-9	-3	4.2	-18	-3.5
Cc1c(-n2cc(C(=O)O)c(=O)c3cc(F)c(N4CCCC(O)C4)c(F)c32)c(=O)n(-c2ccccc2)n1C (centres undefined)	-9	1	5	1	-0.1	6	6	-0.1	-2	2.8
CC(=O)c1cccc(NC(=O)Cn2cnc(S(=O)(=O)N3CCCCC3)c2)c1	-13	-8	-9	9	0.2	3	13	-1.6	-11	-4.8
Cc1ccc(C=C2C(=O)c3ccccc3C2=O)o1	-19	6	-5	10	0.2	·	·	·	-8	-0.2
Cc1ccc(C(=O)NCCc2nnc3ccc(SCC(=O)Nc4c(C)cc(C)cc4C)nn23)cc1	-5	-4	7	?	0.6	·	·	·	-4	-6.2
CCN(CC)S(=O)(=O)c1cccc(-c2n[nH]c(=S)n2C(C)COC)c1 (centres undefined)	-2	9	-2	-5	0.0	-1	0	-0.6	0	3.7
CCN(CC)c1ccc(/C=N/Nc2ccc(C)cc2)c(O)c1	·	45	-2	·	-0.7	·	·	·	5	-3.2
CC(C)(C)CC(=O)Nc1cccc2c1CCCC2	-8	2	-6	7	-0.2	·	·	·	7	5.7
O=C(CCn1c(=O)[nH]c2ccccc2c1=O)N1CCN(c2ccc(Cl)cc2)CC1	4	3	0	6	1.3	·	·	·	-14	2.7
O=C(OCC(=O)N1CCc2ccccc2C1)c1ccc(Cl)c([N+](=O)[O-])c1	·	·	-5	·	-0.4	-7	-13	-0.6	38	2.7
CC(C)c1cc(C(=O)N/N=C/c2c[nH]c3ccccc23)n[nH]1	-5	16	-1	-8	-0.4	·	·	·	6	2.7
COC(=O)NCc1ccc(CNC(=O)OC)cc1	-32	-1	-5	-2	0.8	·	·	·	14	0.0
CCCOc1ccc(CN(CCO)CCO)cc1C(=O)OC	7	-10	-4	8	-1.2	17	5	-5.6	6	4.4
CCN=C1SC(CC(=O)Nc2ccc(C(F)(F)F)cc2)C(=O)N1CC (centres undefined)	10	-9	0	-8	0.5	·	·	·	1	5.0
Cc1ccc(C)c(N(CC(=O)NN=C2CCCCCCC2)S(C)(=O)=O)c1	-4	·	0	?	-1.7	·	·	·	3	4.8

Later entries
mol	T cruzi inh	ALR H2O2 inh	Beta cell apopt	Calb FLC	Bfl-1 A1 inh	Ecoli rRNA inh	Ecoli rRNA inh OD600	Ecoli rRNA inh RFP	Beta2AR agonist	LANA-H2A inh
COc1ccccc1NC(=S)NNC(=O)c1ccc(O)cc1	-10	99*	-2	-3	-0.7	·	·	·	9	1.7
CC(CC(=O)NCCc1ccc(F)cc1)c1ccccc1 (centres undefined)	-6	-6	-1	32	0.5	-8	-7	-1.0	-10	9.9
COc1ccc(Cl)cc1NC(=O)CN(C)C(=O)c1ccc(-n2cncn2)cc1	·	0	-2	·	-0.1	-1	-6	-1.7	-7	0.2
Nc1nc(COC(=O)C2CC(=O)N(Cc3ccccc3Cl)C2)nc(Nc2ccccc2)n1 (centres undefined)	·	-1	-2	·	0.3	7	2	5.3	1	-4.4
COc1ccccc1NC(=S)NCc1ccccn1	2	-4	-3	44	-0.5	9	11	1.3	3	-0.8
Cc1ccc(NC(=O)COC(=O)c2cccc3c2C(=O)c2ccccc2C3=O)c(C)c1	18	-16	9	-4	0.7	·	·	·	16	2.2
NC(=O)COC(=O)c1cc(S(=O)(=O)N2CCN(c3ccccc3)CC2)ccc1Cl	-5	0	·	-6	0.7	12	7	6.6	-2	-0.6
O=C(COC(=O)C1CCN(S(=O)(=O)c2ccc(Cl)c(C(F)(F)F)c2)CC1)NCc1ccco1	-9	-6	0	8	1.1	6	4	-1.6	-8	-7.1
CCCSc1nc2c(c(=O)[nH]c(=O)n2C)n1CCc1ccccc1	13	-7	-1	11	-0.9	·	·	·	0	1.1
COc1ccc(-c2noc(CSc3nc(-c4ccccc4)cc(=O)[nH]3)n2)cc1OC	-12	-6	2	-1	1.0	·	·	·	4	-16
COc1cc(/C=c2\sc3n(c2=O)C(c2ccccc2)C(c2ccccc2)=NN=3)ccc1O (centres undefined)	·	·	14	·	0.9	·	·	·	7	-1.8
Cc1ccc(NC(=O)NNC(=O)c2snnc2C)cc1	2	16	-10	-1	-1.3	3	5	-2.7	-6	1.6
O=C(O)CC1(CC(=O)Nc2ccc(C(F)(F)F)cc2)CCCC1	-4	·	-1	4	-0.2	4	7	0.5	-3	-0.3
Fc1ccc(Nc2nnc(C(F)(F)F)s2)cc1Cl	-4	8	46	-7	0.2	-51	-80	-15	13	-1.2
O=C(/C=C/c1ccc(OC(F)F)cc1)Nc1cccc(S(=O)(=O)NC2=NCCCCC2)c1	3	-3	-3	-5	0.3	-22	-23	-2.4	17	-3.5
Cc1ccc(-c2noc(=O)n2CC(=O)c2ccc(Cl)cc2)cc1	3	-1	27	41	1.0	-2	-4	21	-12	5.8
C#CCOCCOCCOCCNc1nc(N2CCN(C(=O)[C@H](CCC(=O)O)n3cc(C(N)Cc4ccc(O)cc4)nn3)CC2)nc(N2CCN(C(=O)[C@H](CCC(=O)O)n3cc(C(N)CC(C)C)nn3)CC2)n1 (some centres undefined)	-12	·	-7	-11	-1.3	·	·	·	·	1.8
N#Cc1ccc(OCC(=O)Nc2ccncc2)cc1	0	-5	-4	0	0.2	6	-4	-0.2	-3	5.3
Cc1onc(-c2c(Cl)cccc2Cl)c1C(=O)N1CCN(Cc2ccccc2)CC1	2	-5	-3	0	0.1	-11	-13	2.8	4	5.7

Assay outcomes as filed in PubChem BioAssay.
